# UCH37 DUB inh: human UCH37 deubiquitinating enzyme inhibition; purified proteasome/UCH37, Ub-AMC cleavage fluorescence; inhibition, % (no concentration beside the values); 0.33% of 330,000 active;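 active = mean of two replicates above 20%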;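 note: 0% = compound-free wells with enzyme and 100% = wells lacking proteasome; stock transfer was 100 nL into about 20 µL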
# Target sequence (Q9Y5K5 whole entry, looked up): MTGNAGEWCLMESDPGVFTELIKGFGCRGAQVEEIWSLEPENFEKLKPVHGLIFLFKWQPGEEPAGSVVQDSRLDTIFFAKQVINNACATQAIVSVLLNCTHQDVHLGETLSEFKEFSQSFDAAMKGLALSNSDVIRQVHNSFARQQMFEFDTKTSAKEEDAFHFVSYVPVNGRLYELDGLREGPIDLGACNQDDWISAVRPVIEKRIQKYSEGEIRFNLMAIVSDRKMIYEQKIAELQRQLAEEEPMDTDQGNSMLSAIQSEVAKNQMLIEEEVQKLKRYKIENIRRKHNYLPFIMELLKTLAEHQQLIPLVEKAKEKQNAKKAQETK
#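 system = Proteasome-associated human UCH37 deubiquitinase | amount = 0.15 nM proteasome as dispensed | medium = pH 7.4 Tris-HCl (50 mM) with ovalbumin, ATP-MgCl2, DTT | incubation = 30 min preincubation with enzyme, 25 min cleavage at room temperature | detection = AMC fluorescence 355/460 nm | read-out basis = percent inhibition | controls = no-proteasome and no-compound wells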
# Beta2AR agonist: activates human beta-2 adrenergic receptor causing internalization; Am2.2-beta2AR cells, FAP receptor internalization, flow cytometry; reference of the scale not given here; P07550; 0.43% of 340,000 active; response, % (concentration not given with the values);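 active = response above a set limit, near 3 SD of response in nonfluorescent compounds, cut at about 42% in these data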;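 note: stock transfer was 100 nL into about 11 µL; a reference agonist was the positive control; negative values mostly stem from fluorescent compounds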
# Target sequence (P07550 whole entry, looked up): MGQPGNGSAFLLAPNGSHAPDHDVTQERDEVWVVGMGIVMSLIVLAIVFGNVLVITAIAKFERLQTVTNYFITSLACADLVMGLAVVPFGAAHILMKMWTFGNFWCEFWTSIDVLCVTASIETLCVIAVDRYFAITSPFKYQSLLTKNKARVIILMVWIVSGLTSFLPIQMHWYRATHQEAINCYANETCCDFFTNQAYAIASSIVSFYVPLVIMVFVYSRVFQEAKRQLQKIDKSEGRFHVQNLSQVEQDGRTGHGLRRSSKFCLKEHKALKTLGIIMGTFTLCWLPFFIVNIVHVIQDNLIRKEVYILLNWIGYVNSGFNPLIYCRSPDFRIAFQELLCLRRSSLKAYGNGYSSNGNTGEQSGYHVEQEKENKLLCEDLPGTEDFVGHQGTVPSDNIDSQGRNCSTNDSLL
# HNF4A DNA FP: change in binding of human HNF4 alpha to DNA. P41235. HNF4a-FITC DNA binding, fluorescence polarization, 1 h. activity change, % at 10 µM. 0.3% of 360,000 active. AID 1224865; in the data active = activity change above about 30%, passing the limit was not always enough;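 note: controls were the assay level and a saturating level of protein; the project sought stronger binding though the title names inhibitors; some compounds called inactive have numbers as strong as hits; positive values seem to mean higher polarization but the record does not say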
# ALR H2O2 inh: inhibitors of human sulfhydryl oxidase ALR. purified ALR, DTT oxidation, H2O2 HRP-luminol luminescence. inhibition, % (no concentration beside the values). 3.8% of 290,000 active;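 active = mean and each replicate at 75% or more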;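 note: stock transfer was 7.5 nL into about 7.5 µL; 0% = neutral wells and 100% = wells with inactivated enzyme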
# E coli growth: E. coli growth inhibition. 0.21% of 330,000 active. AID 1053175. OD600 absorbance (no concentration beside the values). Escherichia coli growth, OD600, 23 h; hits give low values;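 active = OD600 absorbance below the run mean of sample wells minus 3.6 SD, in any replicate, cut at about 0.56 in these data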;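 note: stock transfer was 300 nL into about 60 µL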
# FGF22 binding: binders of recombinant human FGF22 by thermal shift. Q9HCT0. SYPRO orange fluorescence; percent of sucrose octasulfate shift, DMSO zero. calls only at 9.99 µM. 1.5% of 340,000 active. AID 651658;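 active = melting point raised past a set limit in the mean and every replicate; three in four hits are not shown here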
# Target sequence (Q9HCT0 whole entry, looked up): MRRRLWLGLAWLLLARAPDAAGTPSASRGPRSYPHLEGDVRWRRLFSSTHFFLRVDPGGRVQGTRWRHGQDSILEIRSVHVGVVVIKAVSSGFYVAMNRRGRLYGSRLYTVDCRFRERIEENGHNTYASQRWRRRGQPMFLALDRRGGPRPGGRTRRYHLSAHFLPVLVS
# LANA-H2A inh: blocks KSHV LANA binding to histone H2A/H2B; Q9QR71; cell-free LANA-H2A/H2B peptide, fluorescence polarization; inhibition, % (no concentration beside the values); 0.6% of 320,000 active; in the data active = inhibition mostly above about 10%, no sharp cut-off; inactive = mostly below about 6.7%;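 note: stock transfer was 7.5 nL into about 10 µL; 0% = median of vehicle wells and 100% = median of positive control wells; one replicate is shown; the record names a cut of 25% in any replicate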
# Starred values were filed as active, the others as inactive; i = inactive; . = not tested or not shown. The list is partial; count on the stated rates, not on these rows.
SMILES,UCH37 DUB inh,Beta2AR agonist,HNF4A DNA FP,ALR H2O2 inh,E coli growth,FGF22 binding,LANA-H2A inh
O=C1C2CCCN2C(c2ccccc2F)N1c1ccc(F)cc1 (stereo unspecified),3.9,-1.6,3.7,-8.8,0.709,.,-1.0
O=C1OCc2cc(NC(=O)C3CCCO3)ccc21 (stereo unspecified),2.4,5.2,-2.2,2.9,0.68,.,0.5
CC(C)c1ccc(NC(=O)CCCC(=O)NCCc2ccccc2)cc1,6.6,2.3,1.8,-7.8,0.661,i,-2.6
O=C(N/N=C/c1cccc([N+](=O)[O-])c1)c1ccc(COc2ccccc2-c2ccccc2)cc1,.,-8.8,2.1,5.4,.,i,-17.0
O=C(CCS(=O)(=O)c1ccc(Br)cc1)Nc1ccc(Cl)cc1F,0.1,-7.6,-0.2,-5.8,0.733,.,4.6
O=C(COC(=O)c1ccc2[nH]c3c(c2c1)CCCC3)Nc1ccc(Cl)cc1Cl,.,-2.2,0.8,-3.8,.,i,-2.6
O=C(OCC(=O)N1CCCc2ccccc21)c1cccc(S(=O)(=O)N2CCc3ccccc32)c1,4.6,2.9,0.8,-5.9,0.734,i,2.1
COc1ccc2c3c(c(=O)oc2c1OCC(N)=O)CCCC3,-320.8,-1.6,-1.2,-5.1,0.679,.,3.8
COc1ccc(C(=O)NC(=S)Nc2ccc3[nH]c(=O)[nH]c3c2)cc1,3.6,16.6,2.5,.,0.729,i,6.5
Nn1c(Cc2ccccc2)nc2cc(Cl)ccc2c1=O,4.9,-9.8,4.4,15.5,0.656,i,0.7
COc1ccc(C(=O)N2CCCN(C)CC2)cc1S(=O)(=O)N(C)Cc1ccccc1,0.2,-0.7,1.6,-3.3,0.673,i,-0.5
CN1CCCCC1=NCCCn1cnc2c1c(=O)n(C)c(=O)n2C,1.7,-3.9,1.3,-1.2,0.652,.,-1.5
O=S(=O)(c1cccc(F)c1)N1CCN(C(=S)NCC2CCCO2)CC1 (stereo unspecified),0.8,3.3,-1.0,0.7,0.689,i,6.9
COc1cc(NC(=O)CSc2nc3c(C)ccc(C)c3cc2C)c(C(=O)O)cc1OC,6.1,-0.9,-2.2,.,0.645,i,-6.9
Cc1cccc(NC(=O)c2ccc(N3CCCCC3)c([N+](=O)[O-])c2)n1,0.9,-3.5,-3.1,-4.4,0.631,.,0.7
Oc1ccccc1C1NN=C(c2ccccc2)S1 (stereo unspecified),2.2,5.3,-5.7,-2.9,0.616,i,-0.8
Cc1cc(C)cc(NC(=S)N2CCN(S(C)(=O)=O)CC2)c1,0.1,-4.0,0.6,-23.4,0.734,i,-1.0
CCOC(=O)/C(C#N)=C\c1cn(C)c2ccccc12,3.9,-4.7,-1.4,3.4,0.652,i,2.5
Clc1ccc(-c2csc3ncnc(N4CCc5ccccc5C4)c23)cc1,4.6,3.7,-0.2,.,0.697,i,.
C=C(C(=O)c1ccccc1)C(CC(=O)c1ccccc1)c1ccccc1 (stereo unspecified),0.1,1.0,-4.6,0.6,0.684,.,0.4
Cc1ccc(N2CC(NS(=O)(=O)c3cccnc3)CC2=O)cc1C (stereo unspecified),5.5,6.3,2.1,-0.4,0.666,i,10.0
O=C(CN1CCN(c2ncc(C(F)(F)F)cc2Cl)CC1)Nc1ccc2c(c1)OCO2,3.6,-1.6,1.0,-2.8,0.708,i,-7.6
CCC(C)c1ccccc1N1CC(C(=O)Nc2cc(S(=O)(=O)N3CCOCC3)ccc2OC)CC1=O (stereo unspecified),7.8,6.9,4.6,.,0.676,i,-1.7
CC1(C)CC(=O)C(C=NCc2ccccn2)=C(O)C1,1.8,-8.2,-5.6,-2.5,0.594,i,-6.9
Cc1ccc(NS(=O)(=O)c2ccc(CCC(=O)NCCCOC(C)C)cc2)cc1,0.5,-6.5,-3.7,-6.5,0.667,.,-3.2
CCc1nc(SC)[nH]c(=O)c1C,1.1,4.0,1.2,-10.1,0.725,.,2.1
COc1ccc(-c2cn[nH]c2-c2ccc(OCc3ccccc3F)cc2O)cc1OC,4.8,35.9,0.2,10.9,0.7,i,0.6
CC(NC(=O)c1ccco1)C(=O)OCc1cccc(Cl)c1 (stereo unspecified),-2.9,0.7,-0.9,-0.2,0.674,.,6.0
COc1ccc(CNC(=O)CN(C2CCCCC2)S(C)(=O)=O)cc1,3.1,-0.4,-4.5,.,0.707,.,-3.3
c1cc[n+](CCC[n+]2ccccc2)cc1,1.8,0.4,-6.8,-14.2,0.684,i,2.0
COc1ccc(C(=O)C2CCCN(C(=O)C3=CCCC3)C2)cc1OC (stereo unspecified),0.0,5.3,-2.1,-1.3,0.657,i,2.6
C=CCn1c(SCC(=O)N(CC)C2CCS(=O)(=O)C2)nc2cc(C(=O)O)ccc2c1=O (stereo unspecified),-1.7,-1.5,-0.1,-2.7,0.667,i,1.6
CCCCNC(=O)c1cnc2n(c1=O)CCS2,3.0,1.0,5.0,-5.9,0.705,.,0.4
CCN(CCCNc1ncnc2nc[nH]c12)c1cccc(C)c1,0.0,9.9,-1.0,99.1*,0.695,i,-15.3
CCCCNC(=S)Nc1cc(S(=O)(=O)N2CCCCC2)ccc1C,3.4,2.9,1.8,.,0.755,i,-2.0
CN1CCC(CNC(=O)Nc2ccccc2)(c2ccccc2)CC1,2.1,-7.5,2.6,-1.8,0.724,i,-3.6
CCN1CSC(=S)N(Cc2ccccc2)C1,0.7,1.3,1.5,8.9,0.537,i,-0.4
CSc1sc(C(=O)Nc2ccc(F)cc2F)c2c1C=CCC2,-1.7,16.4,1.0,-1.5,0.728,i,-5.0
Cn1c(=O)oc2cc(S(=O)(=O)N3CCCc4ccccc43)ccc21,4.0,8.9,2.6,9.3,0.781,i,-6.5
COc1cc(NC(=O)C(C)C)ccc1NC(=O)c1cc2ccccc2o1,-62.6,7.4,4.1,-0.8,0.697,i,1.6
CN1CCN(C(CNS(=O)(=O)c2ccc([N+](=O)[O-])cc2)c2ccc(F)cc2)CC1 (stereo unspecified),2.7,5.3,0.5,.,0.676,i,-5.1
Cn1c(-c2ccc(C=O)s2)nc2ccccc21,-117.1,-22.1,-2.1,1.4,0.667,.,1.7
CCn1c(SCC(=O)N(C(C)C)C(C)C)nnc1-c1cc2ccccc2cc1O,0.0,-5.3,-1.9,17.7,0.669,.,2.0
COc1ccc(NC(=O)NNC(=O)CCc2ccc(O)c(O)c2)cc1OC,.,-5.6,0.7,99.2*,.,i,0.4
O=C(NCC(=O)N(Cc1ccccc1)C(C(=O)NC1CCCC1)c1cccnc1)c1ccco1 (stereo unspecified),-0.5,-14.3,6.6,-0.9,0.704,.,-4.0
COc1cc(O)c(C(CC(=O)N2CCCC(C)C2)c2ccc3c(c2)OCO3)c(OC)c1 (stereo unspecified),-1.5,-8.2,-3.1,.,0.664,i,8.2
CN(C)c1ccc(C=c2c3cc([N+](=O)[O-])ccc3n3c2cc(-c2ccccc2)[n+]3C)cc1,.,23.6,4.0,.,.,i,.
Cc1nn(-c2ccccc2)c(=O)c2noc(C)c12,2.4,1.4,-2.0,1.6,0.669,i,-1.6
O=C(Cc1ccc([N+](=O)[O-])cc1)NC1CCCCCC1,1.8,-7.3,2.4,2.7,0.72,i,-9.5
O=C(Cn1ncc(Cl)c(Cl)c1=O)N1CCc2ccccc21,4.0,54.1*,-4.3,.,0.721,i,.
Cc1cc([N+](=O)[O-])ccc1NCc1cccc2ccccc12,4.8,8.8,-2.1,-5.2,0.662,i,0.1
Cc1ccc(C(=O)Oc2oc(-c3ccccc3)nc2C=Nc2ccc(N(C)C)cc2)cc1,6.8,-4.7,2.3,57.0,0.682,i,-23.3
CNc1nc(Cl)c(SC)c(NCc2cccc(OC)c2)n1,1.7,0.7,-0.9,-0.8,0.726,i,-1.3
Cc1nnc(Nc2ccccn2)c2ccccc12,1.5,-13.8,2.3,1.1,0.703,.,-0.7
CCCc1nn2c(=O)cc(CSCC(=O)Nc3ccccc3)nc2s1,-1.1,-8.3,-0.3,-0.8,0.693,i,1.9
CC(C)(C)c1ccc(/C=C/C(=O)Nc2ncccn2)cc1,1.1,5.4,-2.1,-1.8,0.672,.,-0.6
NS(=O)(=O)c1cc(C(=O)NCCOc2ccccc2)c(Cl)cc1Cl,1.3,-2.8,0.1,-9.8,0.66,.,-2.2
Cc1c([N+](=O)[O-])c2ccc(O)cc2n1-c1ccccc1,.,4.3,-2.2,5.2,.,i,2.8
Cc1ccc(CNS(=O)(=O)c2c(C)nc3scc(C)n3c2=O)cc1,-79.7,0.6,2.7,-3.1,0.694,i,4.1
COc1ccc(OCC(=O)N2CCCC2=O)c([N+](=O)[O-])c1,2.6,1.8,2.8,-10.3,0.699,i,3.0

# Fetched one by one from the list above:
SMILES,UCH37 DUB inh,Beta2AR agonist,HNF4A DNA FP,ALR H2O2 inh,E coli growth,FGF22 binding,LANA-H2A inh
Cc1ccc(CNS(=O)(=O)c2c(C)nc3scc(C)n3c2=O)cc1,-79.7,0.6,2.7,-3.1,0.694,i,4.1
COc1cc(O)c(C(CC(=O)N2CCCC(C)C2)c2ccc3c(c2)OCO3)c(OC)c1 (stereo unspecified),-1.5,-8.2,-3.1,.,0.664,i,8.2
Cn1c(-c2ccc(C=O)s2)nc2ccccc21,-117.1,-22.1,-2.1,1.4,0.667,.,1.7
CN1CCN(C(CNS(=O)(=O)c2ccc([N+](=O)[O-])cc2)c2ccc(F)cc2)CC1 (stereo unspecified),2.7,5.3,0.5,.,0.676,i,-5.1

# Additional structures.
SMILES,UCH37 DUB inh,Beta2AR agonist,HNF4A DNA FP,ALR H2O2 inh,E coli growth,FGF22 binding,LANA-H2A inh
CCOC(=O)c1cc(-c2csc(Nc3c(C)cc(C)cc3C)n2)on1,3.3,12.6,1.4,1.0,0.691,i,-1.8
COc1ccc(OCC2c3cc(OC)c(OC)cc3CCN2C(=O)C(C)C)cc1 (stereo unspecified),0.8,-3.8,2.2,.,0.7,i,.
COCCn1c(SCC(=O)NCc2ccc(F)cc2)nc2ccccc21,3.2,12.0,1.8,-2.7,0.666,i,3.7
CC(C)(C)OC(=O)C[C@H]1C/C=C\C[C@H](CC(=O)N[C@H](CO)Cc2ccccc2)C(=O)N[C@H](Cc2ccccc2)COC1=O,0.3,3.8,6.6,-3.7,0.692,i,82.6*
Nn1c(Cc2ccccc2F)nnc1SCn1nnc2ccccc2c1=O,2.1,4.6,0.7,.,0.71,.,0.7
CN1CCCN(Cc2nc(-c3ccc(Cl)cc3)no2)CC1,0.3,1.2,-0.1,-3.2,0.696,.,1.1
O=C(COc1cccc(Cl)c1Cl)Nc1ccc2c(c1)CCC2,2.2,-20.7,-1.5,-2.9,0.709,.,1.5
O=C(COC(=O)Cc1ccc(-c2ccccc2)cc1)NCc1ccccc1,0.8,-1.8,-0.3,-19.3,0.714,i,1.2
O=C(O)CSCc1nc2scc(-c3ccccc3)c2c(=O)[nH]1,1.3,-4.4,1.6,-4.1,0.698,i,2.7
Cc1nc(C)n(CC(C)C(=O)N2CCN(S(=O)(=O)c3ccccc3)CC2)n1 (stereo unspecified),4.7,2.2,0.1,2.7,0.675,i,-2.3
O=C(O)/C=C/C(=O)NCCNc1ncc(C(F)(F)F)cc1Cl,6.6,8.3,-3.2,39.7,0.674,i,-0.1
Cc1ccc(NC(=O)N2CCC(C(=O)NCCC3=CCCCC3)CC2)cc1,1.9,3.1,-1.5,-0.9,0.74,.,7.7
O=C(COc1ccc([N+](=O)[O-])cc1)Nc1ccc(NC(=O)c2ccccc2)cc1,1.7,-4.3,2.3,-2.9,0.7,i,2.1
Cn1c(=O)oc2cc(S(=O)(=O)NCCC(=O)N3CCN(c4ccccc4)CC3)ccc21,1.2,-1.0,2.0,69.5,0.679,i,2.0
O=C(NCCCn1ccnc1)C(=O)NCC(c1ccco1)N1CCN(c2ccccc2)CC1 (stereo unspecified),1.8,-4.0,1.5,99.1*,0.723,i,-1.9
O=C(CCN1C(=O)COc2ccccc21)NCc1ccco1,-1.3,17.3,-4.8,-1.0,0.658,.,-2.6
